PINK1 expr mod = modulators of PINK1 expression | actives 0.2% (n = 410,000) | PINK1 immunofluorescence, high-content cytometry, 24 h | Potency, µM (doses to about 76.6 µM), without a hit: at the top dose activation (PINK1 increase), usual class: activators; active = well fitted activation curve with a large enough effect; inconclusive = small, poorly fitted or top-dose-only effect; inactive = flat fitted curve, though single readings scatter; cell line not stated here;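 note: potency is the fitted concentration of half-maximal effect; % of control where 0% means no effect; nearly all actives have a fitted effect of over 65% in size; a mitochondrial uncoupler was the plate control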
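Readout is PINK1 immunofluorescence, quantified alongside mitochondrial, cell and nuclear markers by laser-scanning microplate cytometry. Cells from a stable line were exposed to compound titrations (5 concentrations) for 24 hours, with CCCP controls.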
Sfp PPTase inh = inhibitors of Bacillus subtilis Sfp phosphopantetheinyl transferase. actives 3.5% (n = 310,000). AID 1490. Biochemical Sfp PPTase activity, qHTS. Q9F4F7. Potency, µM, for inactives: max response, negative = inhibition, hits mostly inhibitors; active = well fitted inhibition curve with a large enough effect; inconclusive = small, poorly fitted or top-dose-only effect, or another doubt; inactive = no such curve, though single readings can be large or run the other way;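 note: the enzyme is Sfp with the accession as filed and its product quenches rhodamine fluorescence; potency is the fitted concentration of half-maximal effect; 0% = enzyme reaction without inhibitor and -100% = no enzyme wells; top concentration of the series not given in the record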
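With Hepes-Na pH 7.6 buffer containing 10 mM MgCl2, Sfp (15 nM) modified BHQ-2-YbbR (12.5 uM) using rhodamine-CoA (5 uM). Two reads 30 minutes apart at 525/598 nm yielded each well's rate.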
CtBP-E1A blk = CtBP/E1A binding inhibition; AlphaScreen GST-E1A/His-CtBP binding, 1536-well; active compounds read low; control for the full effect not named in the record; actives 0.49% (n = 340,000); activity change, % (test concentration not listed); in the data active means activity change below about -65%; inconclusive means about -30% to -65%; inactive means above about -30%; note: % is set by controls: 0 for no effect and ±100 for the full control effect
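In 5 uL wells, 23 nL compound meets equimolar GST-E1A and His-CtBP (5X stock 125 nM each) for 2 h, 37 °C. Beads (5X, 50 ug/mL) then 1 h, 37 °C, dark.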
Six1-Eya2 blk = Six1/Eya2 interaction inhibition | Q15475+O00167 | AlphaScreen GST-Six1/His-Eya2 binding, biochemical; active compounds read low; control for the full effect not named in the record | activity change, % (concentration not given with the values) | actives 0.56% (n = 360,000); in the data active = activity change below about -65%; inconclusive = about -30% to -65%; inactive = above about -30%; note: % is set by controls: 0 for no effect and ±100 for the full control effect
Target sequence (O00167 whole entry, looked up): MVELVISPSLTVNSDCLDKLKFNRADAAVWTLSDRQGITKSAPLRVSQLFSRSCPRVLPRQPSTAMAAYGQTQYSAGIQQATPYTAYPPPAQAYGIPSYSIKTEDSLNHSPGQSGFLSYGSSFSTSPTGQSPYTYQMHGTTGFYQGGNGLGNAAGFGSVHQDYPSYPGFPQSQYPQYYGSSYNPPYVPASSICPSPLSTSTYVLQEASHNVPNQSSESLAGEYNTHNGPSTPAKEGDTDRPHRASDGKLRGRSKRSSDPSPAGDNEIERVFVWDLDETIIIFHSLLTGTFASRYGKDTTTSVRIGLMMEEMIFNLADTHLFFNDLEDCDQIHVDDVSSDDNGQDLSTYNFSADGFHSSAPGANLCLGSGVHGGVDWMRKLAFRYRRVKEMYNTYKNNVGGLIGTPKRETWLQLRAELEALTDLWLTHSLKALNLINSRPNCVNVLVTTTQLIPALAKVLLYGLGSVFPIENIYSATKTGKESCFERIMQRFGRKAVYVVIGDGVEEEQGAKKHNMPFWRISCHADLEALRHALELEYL
Target sequence (Q15475 whole entry, looked up): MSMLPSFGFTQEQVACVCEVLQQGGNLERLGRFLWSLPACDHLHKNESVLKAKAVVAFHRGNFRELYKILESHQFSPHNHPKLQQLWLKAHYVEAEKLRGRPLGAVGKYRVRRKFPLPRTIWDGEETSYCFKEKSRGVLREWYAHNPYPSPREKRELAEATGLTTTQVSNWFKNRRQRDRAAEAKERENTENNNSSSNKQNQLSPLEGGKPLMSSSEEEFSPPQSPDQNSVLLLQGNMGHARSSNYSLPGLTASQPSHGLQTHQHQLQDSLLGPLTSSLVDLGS
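Homogeneous AlphaScreen proximity assay pairing GST-Six1 with His-tagged Eya2 (added as 5X mix: 250 nM and 500 nM) in 50 mM Tris pH 8.0, 300 mM NaCl, 1 mM TCEP. Glutathione donor and nickel acceptor beads; 1 h, 37 °C, dark.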
D2 ag = agonists of human D2 dopamine receptor (beta-arrestin); P14416; DiscoveRx PathHunter D2 beta-arrestin, luminescence, 90 min; 100% = 57 uM dopamine signal; activation, % (concentration not given with the values); actives 0.084% (n = 360,000); AID 624465; in the data active = activation above about 40%; inconclusive = about 15% to 40%; inactive = below about 15%; note: compound concentration not given in the record; the text of the record calls up to 30% inactive
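Agonist mode: compounds alone added to overnight-plated D2 PathHunter cells for 90 min at 37 C, with 57 uM final dopamine (EC100) defining full response. Beta-arrestin recruitment detected by chemiluminescent reagent, read after 1 h at ambient temperature.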
D2 potentiator = human D2 receptor positive allosteric modulation; P14416; DiscoveRx D2 beta-arrestin cells, luminescence, 90 min; 100% = 57 uM dopamine signal; potentiation, % (test concentration not listed); actives 0.23% (n = 360,000); AID 624464; active = potentiation of 50% or more; inconclusive = 30% to 50%; inactive = 30% or less;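 note: compound concentration not given in the record; tested on top of an EC20 dose of dopamine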
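PathHunter beta-arrestin assay in DiscoveRx D2 cells. Compounds were added with an EC20 of dopamine (50 nM final) for 90 min at 37 deg C. Luminescence was read 1 h after detection reagent, with 57 uM dopamine as the EC100 control.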
TRPV1 PAM = potentiators of human vanilloid receptor 1 (TRPV1). actives 0.02% (n = 320,000). TRPV1-expressing cells, Fluo-8 calcium influx, capsaicin EC20 potentiation; host cell line not named in the record; control for the full effect not named in the record. AID 540277. potentiation, % at 8.33 µM. Q8NER1; active means potentiation above 80%; inconclusive means 30% to 80%; inactive means below 30%; note: 0% is about no effect
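TRPV1-expressing cells were cultured overnight at 35.5C and loaded with Fluo-8 calcium dye for 40 to 90 min at room temperature. After a 10 s baseline, compound was added and calcium influx was read kinetically for 3 min (ex 480/em 520 nm).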
* = called active by the depositor; & = joins results of further samples; [ ] = dose if it differs, or a comment.

What do the screens show for `Cc1ccc(NC(=O)COC(=O)Cn2cnc3c2c(=O)n(C)c(=O)n3C)cc1Cl`?
PINK1 expr mod: 1.4%; Sfp PPTase inh: 0%; CtBP-E1A blk: 2; Six1-Eya2 blk: -2; D2 ag: -7.3; D2 potentiator: -13; TRPV1 PAM: 1

Results for O=C(NCc1ccccc1)c1cc(-c2ccco2)on1 ?
PINK1 expr mod: -7.0%[38.3 µM]; Sfp PPTase inh: -5%; CtBP-E1A blk: 7; Six1-Eya2 blk: 2; D2 ag: -1.4; D2 potentiator: -2; TRPV1 PAM: -10

Results for COc1ccc2sc(N(CCN(C)C)C(=O)c3ccc4ccccc4c3)nc2c1 ?
PINK1 expr mod: 0.9%; Sfp PPTase inh: -11%; Six1-Eya2 blk: -7; D2 ag: -6.9; D2 potentiator: -17; TRPV1 PAM: inconclusive

Results for CC(C)(C)C(=O)N1CCN(c2c(Cl)cccc2[N+](=O)[O-])CC1 ?
PINK1 expr mod: 0.4%; Sfp PPTase inh: 9%; CtBP-E1A blk: -4; Six1-Eya2 blk: 0; D2 ag: -3.8; D2 potentiator: -18; TRPV1 PAM: -11

Results for COc1ccc(CNC(=O)CSc2nc(-c3ccccc3)cc(-c3cccs3)c2C#N)cc1 ?
PINK1 expr mod: 5.2%; Sfp PPTase inh: -29%; CtBP-E1A blk: 9; Six1-Eya2 blk: 3; D2 ag: -1.1; D2 potentiator: 0; TRPV1 PAM: 9

What do the screens show for `CCOC(=O)CSc1nc2ccccc2n1CC(=O)N(C(C)C)C(C)C`?
PINK1 expr mod: -1.5%[38.3 µM]; Sfp PPTase inh: 6%; CtBP-E1A blk: 9; Six1-Eya2 blk: -1; D2 ag: 0.9; D2 potentiator: -6; TRPV1 PAM: -5

Results for Cc1cc(OCC(=O)NC2CC(C)(C)NC(C)(C)C2)c2c(C)c(C)c(=O)oc2c1 ?
PINK1 expr mod: 0.8%; Sfp PPTase inh: 7%; CtBP-E1A blk: -5; Six1-Eya2 blk: 3; D2 ag: 0.9; D2 potentiator: -2; TRPV1 PAM: 1

Results for CCCCn1c(SCC(=O)N2CCCCC2C)nc2cc(S(N)(=O)=O)ccc21 (centres undefined) ?
PINK1 expr mod: 1.7%; Sfp PPTase inh: -3%; CtBP-E1A blk: 1; Six1-Eya2 blk: 1; D2 ag: -3.8; D2 potentiator: -8; TRPV1 PAM: 11

How did CSc1ccccc1NC(=O)c1cnc2scc(C)n2c1=O do in these assays?
PINK1 expr mod: 0.5%; Sfp PPTase inh: 4%; CtBP-E1A blk: 2; Six1-Eya2 blk: 3; D2 ag: 0.5; D2 potentiator: -1; TRPV1 PAM: 7

What do the screens show for `CN1CCN(CCOCCOc2c(Cl)cc(Cl)cc2Cl)CC1`?
PINK1 expr mod: -0.3%; CtBP-E1A blk: -3; Six1-Eya2 blk: -10; D2 ag: -3.7; D2 potentiator: -9

Results for CCCCOc1ccc(/C=N/NC(=O)C2CCCNC2=O)cc1 (centres undefined) ?
PINK1 expr mod: 0.3%; Sfp PPTase inh: -3%; CtBP-E1A blk: -1; Six1-Eya2 blk: 0; D2 ag: 1.2; D2 potentiator: 17; TRPV1 PAM: -5

How did CCOC(=O)c1ccc(NC(=O)C(C)N2C(=O)c3ccccc3C2=O)cc1 (centres undefined) do in these assays?
Sfp PPTase inh: 0%; CtBP-E1A blk: 9; Six1-Eya2 blk: -2; D2 ag: 0.7; D2 potentiator: 3; TRPV1 PAM: -7

Results for COc1ccc(OC)c(S(=O)(=O)N(C)CC(=O)N2CCCCC2)c1 ?
PINK1 expr mod: 1.1%; Sfp PPTase inh: 4%; CtBP-E1A blk: -15; Six1-Eya2 blk: -9; D2 ag: -2.3; D2 potentiator: -10; TRPV1 PAM: 1

How did Cc1ccccc1N(CC(=O)NCC1CCCO1)C(=O)C1(C)CC(=O)N=C2C=CC=CN21 (centres undefined) do in these assays?
PINK1 expr mod: 3.0%[38.3 µM]; Sfp PPTase inh: 12%; CtBP-E1A blk: 2; Six1-Eya2 blk: 1; D2 ag: -1.0; D2 potentiator: 0; TRPV1 PAM: -1

What do the screens show for `CCN(CC)C(=O)CSc1ncnc2c1nnn2-c1ccc(OC)cc1`?
PINK1 expr mod: -0.1%; Sfp PPTase inh: 10%; CtBP-E1A blk: 11; Six1-Eya2 blk: 10; D2 ag: -2.4; D2 potentiator: -2; TRPV1 PAM: 7

Results for O=C(COc1ccccc1C(=O)Nc1ccccc1)NCCc1ccccc1 ?
PINK1 expr mod: 2.0%&3.9%; Sfp PPTase inh: 8%; CtBP-E1A blk: 2; Six1-Eya2 blk: 4; D2 ag: 0.0; D2 potentiator: -24; TRPV1 PAM: -2

What do the screens show for `CC(C)(C)NC(=O)c1cc([N+](=O)[O-])ccc1N1CCCCC1`?
PINK1 expr mod: -0.5%; Sfp PPTase inh: 13%; CtBP-E1A blk: 13; Six1-Eya2 blk: 9; D2 ag: -4.7; D2 potentiator: -14; TRPV1 PAM: -5

What do the screens show for `COc1ccc(OC)c(N2C(=O)CC(C(C)c3ccccc3)C2=O)c1` (centres undefined)?
PINK1 expr mod: -2.5%; Sfp PPTase inh: 15%; CtBP-E1A blk: -2; Six1-Eya2 blk: -17; D2 ag: -5.4; D2 potentiator: 3; TRPV1 PAM: 8

Results for CN(Cc1ccco1)c1ncnc2ccc(-c3ccoc3)cc12 ?
PINK1 expr mod: 1.2%&0.9%; Sfp PPTase inh: -20%; TRPV1 PAM: -6

How did COc1ccc([C@H]2CC(=O)C=C(c3ccc(Cl)c(C(F)(F)F)c3)C2)cc1OC do in these assays?
PINK1 expr mod: 1.5%; CtBP-E1A blk: -7; Six1-Eya2 blk: -19; D2 ag: 0.7; D2 potentiator: -9; TRPV1 PAM: -5

The final two entries of the part above lead into the next:
Results for CN(Cc1ccco1)c1ncnc2ccc(-c3ccoc3)cc12 ?
PINK1 expr mod: 1.2%&0.9%; Sfp PPTase inh: -20%; TRPV1 PAM: -6

How did COc1ccc([C@H]2CC(=O)C=C(c3ccc(Cl)c(C(F)(F)F)c3)C2)cc1OC do in these assays?
PINK1 expr mod: 1.5%; CtBP-E1A blk: -7; Six1-Eya2 blk: -19; D2 ag: 0.7; D2 potentiator: -9; TRPV1 PAM: -5

What do the screens show for `O=c1cc(O)c2c(=O)n(Cc3ccccc3)c3ccccc3c2o1`?
PINK1 expr mod: 3.5%; Sfp PPTase inh: inconclusive; CtBP-E1A blk: -6; Six1-Eya2 blk: -4; D2 ag: 3.1; D2 potentiator: 2; TRPV1 PAM: 4

Results for COc1ccccc1CNC(=O)c1ccc(-c2ccccc2Cl)o1 ?
PINK1 expr mod: 26%; Sfp PPTase inh: inconclusive; Six1-Eya2 blk: -14; D2 ag: 2.6; D2 potentiator: -3; TRPV1 PAM: 17

Results for CCOc1ccc(NC(=O)C2C3C=CC4(CN(C(C(=O)OC)C(C)C)C(=O)C24)O3)cc1 (centres undefined) ?
PINK1 expr mod: 1.3%; Sfp PPTase inh: 13%; CtBP-E1A blk: -10; Six1-Eya2 blk: -13; D2 ag: 9.1; D2 potentiator: 1; TRPV1 PAM: 9

How did O=C(NC(=S)NC1CCCCC1)c1ccc(Cl)cc1 do in these assays?
PINK1 expr mod: inconclusive; Sfp PPTase inh: inconclusive; CtBP-E1A blk: -3; Six1-Eya2 blk: -13; D2 ag: -2.7; D2 potentiator: 1; TRPV1 PAM: 2

Results for O=C1CN(S(=O)(=O)c2ccccc2)CC(=O)N1CCc1ccccc1 ?
PINK1 expr mod: 5.2%; Sfp PPTase inh: 10%; CtBP-E1A blk: 13; Six1-Eya2 blk: 0; D2 ag: -3.9; D2 potentiator: -9; TRPV1 PAM: -6

Results for Cc1ccc(-c2noc(CCC(=O)N3CCCc4ccccc43)n2)cc1 ?
PINK1 expr mod: 10%; Sfp PPTase inh: -18%; CtBP-E1A blk: 16; Six1-Eya2 blk: 9; D2 ag: -9.1; D2 potentiator: -15; TRPV1 PAM: -4

What do the screens show for `CC(Sc1nc(-c2ccccc2)cc(C(F)(F)F)n1)C(=O)Nc1sc2c(c1C#N)CCC2` (centres undefined)?
PINK1 expr mod: 4.8%[38.3 µM]; Sfp PPTase inh: -11%; CtBP-E1A blk: -10; Six1-Eya2 blk: -10; D2 ag: -2.1; D2 potentiator: 1; TRPV1 PAM: 8

Results for OC(Cc1ccnc2ccccc12)C(Cl)(Cl)Cl (centres undefined) ?
PINK1 expr mod: 3.6%; CtBP-E1A blk: 6; Six1-Eya2 blk: 8; D2 ag: 4.9; D2 potentiator: -6

How did CCN(CC)S(=O)(=O)c1cccc(-c2nnc(-c3ccc(C)cc3)o2)c1 do in these assays?
PINK1 expr mod: 3.0%; Sfp PPTase inh: 5%; CtBP-E1A blk: -12; Six1-Eya2 blk: 2; D2 ag: 0.5; D2 potentiator: 18; TRPV1 PAM: -9

Results for CC(=NN=C(C)c1ccc(O)cc1)c1ccc(O)cc1 ?
PINK1 expr mod: -1.2%; CtBP-E1A blk: -9; Six1-Eya2 blk: 0; D2 ag: -2.0; D2 potentiator: -4

What do the screens show for `COC(=O)C1CCN(C(=O)COC(=O)C2CCN(S(=O)(=O)c3ccc(C)c(C)c3)CC2)CC1`?
PINK1 expr mod: 0.2%; CtBP-E1A blk: 9; Six1-Eya2 blk: -6; D2 ag: 6.0; D2 potentiator: -18; TRPV1 PAM: 2

Results for O=C1CCc2cc(S(=O)(=O)Nc3ccc(F)cc3)ccc2N1 ?
PINK1 expr mod: -1.0%; CtBP-E1A blk: -4; Six1-Eya2 blk: -3; D2 ag: 4.8; D2 potentiator: -3; TRPV1 PAM: -20

How did O=C(CSc1nc2ccccc2o1)NC1CCS(=O)(=O)C1 (centres undefined) do in these assays?
PINK1 expr mod: -4.4%; CtBP-E1A blk: -1; Six1-Eya2 blk: -1; D2 ag: -6.2; D2 potentiator: -6

Pulled by structure from the entries so far (two):
What do the screens show for `COC(=O)C1CCN(C(=O)COC(=O)C2CCN(S(=O)(=O)c3ccc(C)c(C)c3)CC2)CC1`?
PINK1 expr mod: 0.2%; CtBP-E1A blk: 9; Six1-Eya2 blk: -6; D2 ag: 6.0; D2 potentiator: -18; TRPV1 PAM: 2

How did O=C(NC(=S)NC1CCCCC1)c1ccc(Cl)cc1 do in these assays?
PINK1 expr mod: inconclusive; Sfp PPTase inh: inconclusive; CtBP-E1A blk: -3; Six1-Eya2 blk: -13; D2 ag: -2.7; D2 potentiator: 1; TRPV1 PAM: 2

High-throughput results (PubChem)
